CSC inhib: cancer stem cell inhibition; cancer stem cell-like cells viability, luminescence; inhibition, % at 7.5 µM; 1.1% of 300,000 active; AID 2717;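 active = mean at 75% or more and at least half the replicates too; inconclusive = mean and replicates disagree; tested in HMLE shEcad cells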;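 note: 0% = median of negative and 100% = median of positive control wells; the first replicate is given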
MT1-MMP act inh: MT1-MMP (human) activation inhibition; P50281; HT1080 RFP-PRO-GFP cells, GFP/RFP ratio fluorescence, overnight; percent of plate control window, DMSO zero; GFP/RFP ratio change, % at 20 µM; 0.061% of 360,000 active; AID 651647;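 active = GFP/RFP ratio change of at least 30% with cell ATP level not reduced by more than half and red fluorescence within 50% of control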; note: strong numbers were not always called active
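Read-out: GFP/RFP fluorescence ratio; Test system: RFP-PRO-GFP reporter HT1080 cells; Compound dosing: single-point 20 µM compound, 1% DMSO; Times: overnight compound exposure at 37 °C.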
Env fusion inh: HIV envelope-mediated fusion inhibition. HeLa-JRFL Env/CEM21 cell fusion, luciferase. inhibition, % at 12.3 µM. 1.1% of 360,000 active. AID 651610;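 active = mean replicate inhibition score of at least 50 and every replicate individually at or above 50; inconclusive = only one of the two criteria met; inactive = mean below 50 and not all replicates reaching 50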;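 note: 0% = plate neutral controls and 100% = maraviroc near 300 nM; one replicate is shown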
Yeast UUG start: yeast start codon fidelity modulation. AID 602363. 0.13% of 350,000 active. S. cerevisiae UUG-firefly luciferase reporter, luminescence/redox ratio. activity score, % at 18.7 µM;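 active = replicate mean at a twofold rise or more, about +100% in these data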;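 note: firefly luciferase made from a UUG start codon reports start codon fidelity; reporter light over untreated wells divided by growth signal over untreated wells; some hits fall short of that in this replicate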
eIF4H inh: inhibitors of RNA binding by human eIF4H | inhibition, % at 35 µM | eIF4H fluorescence polarization binding assay | Q15056 | 0.94% of 290,000 active | AID 2012;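 active = 50% or more with normal probe brightness, or confirmed in later tests; inconclusive = above 50% with abnormal brightness, or retests that disagree; inactive = below 50% or failed in later tests; about a fifth of its hits are not listed in these tables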;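 note: calls also rest on retests at 20 µM and on dose response follow-up; 0% = protein and probe with vehicle and 100% = probe without protein; strong numbers were not always called active; many hits fall short of the cut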
PABP polyA inh: blocks human PABP binding to poly(A) RNA | P11940 | fluorescence polarization | inhibition, % at 35 µM | 1% of 290,000 active;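 active = 50% or more with normal probe brightness, or confirmed in later tests; inconclusive = above 50% with abnormal brightness, or retests that disagree; inactive = below 50% or failed in later tests; about a fifth of its hits are not listed in these tables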;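 note: calls also rest on retests at 20 µM and on dose response follow-up; controls were probe without protein and protein plus probe with vehicle; some compounds called inactive have numbers as strong as hits; many hits fall short of the cut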
Rce1 inhib: inhibitors of yeast Ras-converting enzyme; Q03530; calls only; yeast membranes, quenched prenylated peptide cleavage fluorescence; 0.27% of 290,000 active;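 active = fall in fluorescence gain of 50% or more versus controls, with final raw signal at or below 3038400; inconclusive = same 50% fall but final raw signal above 3038400; inactive = fall in fluorescence gain under 50%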;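 note: plate controls were neutral control wells for no effect and wells lacking membranes for full effect; tested at 10 µM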
Target sequence (Q03530 whole entry, looked up): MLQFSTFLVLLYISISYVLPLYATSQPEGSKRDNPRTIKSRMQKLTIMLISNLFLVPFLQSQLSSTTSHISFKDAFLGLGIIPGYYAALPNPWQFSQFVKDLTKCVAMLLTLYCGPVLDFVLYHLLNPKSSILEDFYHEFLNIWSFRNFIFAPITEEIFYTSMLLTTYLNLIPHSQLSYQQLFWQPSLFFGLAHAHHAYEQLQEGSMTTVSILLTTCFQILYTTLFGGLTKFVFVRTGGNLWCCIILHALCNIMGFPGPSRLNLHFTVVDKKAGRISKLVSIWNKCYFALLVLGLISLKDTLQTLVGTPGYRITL
eIF4H inh retest: also measured in eIF4H inh; calls as there; inhibition, %; compound at 20 µM; confirmation average;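 mean of two retest wells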
PABP polyA inh retest: recorded beside PABP polyA inh, whose call it bears; inhibition, %; compound at 20 µM; confirmation repeats;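 mean of two retest wells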
MT1-MMP act inh RFP: also measured in MT1-MMP act inh; calls as there; RFP signal change, %; measured here: RFP expression control read;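 0 = vehicle wells; hits needed this value within 50% of zero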
Active calls of the source: *; i = inactive; ? = inconclusive; / = not tested or not shown.

SMILES	CSC inhib	MT1-MMP act inh	MT1-MMP act inh RFP	Env fusion inh	Yeast UUG start	eIF4H inh	PABP polyA inh	Rce1 inhib	others
Cc1cc(C)cc(N=C2NC(=O)/C(=C/c3cccs3)S2)c1	36	-3	0	6	/	0	-8	i
CCOC(=O)N1CCC(NS(=O)(=O)c2cc(Br)cnc2N)CC1	0	2	-1	/	11	-14	-2	i
Cc1ccc(NCCC(=O)c2ccccc2)cc1Cl	3	2	4	-6	1	1	-9	i
CSc1ncccc1C(=O)OCC(=O)c1ccccc1	2	3	2	-15	-9	-3	-7	i
O=C(NCCc1ccccn1)C1CCN(S(=O)(=O)c2ccc3ccccc3c2)CC1	-12	-1	0	6	/	-13	3	i
Cc1ccc(NC(=O)CN(C)S(=O)(=O)c2cccc3nsnc23)cc1	12	7	-3	/	/	-10	-15	i
Cc1ccc(C(=O)OCc2cc(=O)n3c(C)csc3n2)s1	/	-4	4	-7	-13	/	/	/
Cc1cccc(C)c1NC(=O)c1csc([C@H]2C[C@H](O)[C@@H](CO)O2)n1	/	0	3	18	-1	/	/	/
O=C(Cc1ccccc1)N1CCC(c2nc(-c3ccc(F)cc3)no2)CC1	-16	8	-4	9	/	0	-3	i
Cc1cccc(N=C2NC(=O)/C(=C/c3cccn3C)S2)c1C	32	-31	-3	1	-12	6	-11	i
CCCS(=O)(=O)N1CCCC(C(=O)NCCN2CCC(Cc3ccccc3)CC2)C1 (stereo not given)	/	-2	2	/	-5	-14	-8	i
FC(F)(F)c1ccccc1NC(=S)N1CCc2ccccc2C1	-6	3	-10	10	/	1	4	i
Cc1ccc(C2NC(=O)NC3=C2CCc2ccccc23)cc1 (stereo not given)	-2	-4	-4	-9	/	4	7	/
COc1ccc(CCC(=O)N2CCN(S(=O)(=O)c3cccc(Cl)c3)CC2)cc1	-10	-3	-4	10	24	/	/	/
CCCCOc1ccc(S(=O)(=O)Nc2ccc(NC(C)=O)cc2)cc1	-4	13	-12	65	-5	0	-10	/
CCCn1nnnc1-c1cc(Cl)cc(Cl)c1	-7	1	0	/	4	-3	3	i
CN(Cc1cccc(F)c1)C(=O)c1cccc(S(=O)(=O)N2CCN(Cc3ccccc3)CC2)c1	-6	1	-3	3	3	-4	2	i
O=C1Nc2ccccc2C(=O)C1(Cl)Cc1ccccc1 (stereo not given)	12	-1	1	/	-24	0	22	i
CN(CC(=O)Nc1ccc(F)cc1)C(=O)COC(=O)CSc1ccc(F)cc1	-1	2	1	/	1	/	/	i
COC(=O)CSc1nnc(-c2ccc(S(=O)(=O)N3CCCC3)cc2)n1C	-10	-4	1	-38	3	-7	8	i

Four entries already listed, sorted by length of the SMILES, ascending:
SMILES	CSC inhib	MT1-MMP act inh	MT1-MMP act inh RFP	Env fusion inh	Yeast UUG start	eIF4H inh	PABP polyA inh	Rce1 inhib	others
Cc1ccc(NCCC(=O)c2ccccc2)cc1Cl	3	2	4	-6	1	1	-9	i
O=C1Nc2ccccc2C(=O)C1(Cl)Cc1ccccc1 (stereo not given)	12	-1	1	/	-24	0	22	i
Cc1cccc(N=C2NC(=O)/C(=C/c3cccn3C)S2)c1C	32	-31	-3	1	-12	6	-11	i
O=C(NCCc1ccccn1)C1CCN(S(=O)(=O)c2ccc3ccccc3c2)CC1	-12	-1	0	6	/	-13	3	i

Later entries.
SMILES	CSC inhib	MT1-MMP act inh	MT1-MMP act inh RFP	Env fusion inh	Yeast UUG start	eIF4H inh	PABP polyA inh	Rce1 inhib	others
O=C1CCN(Cc2ccccc2)C=C1c1ccc(Br)cc1	/	5	-10	23	-5	/	/	/
CC1(C)Cc2c(sc3nc(-c4ccccc4)n(N)c(=O)c23)CO1	-8	-1	-4	/	-6	27	16	i
O=C(Oc1ccc(/C=N/NC(=O)c2ccccn2)cc1)c1ccc(Br)cc1	3	-2	1	-22	-11	-5	8	i
CCc1nc2c(OCCn3cccc3)cccn2c1N(C)C(=O)C1CC1	/	-2	1	0	4	/	/	/
CCOc1ccc(Cc2nc(-c3nonc3N)no2)cc1OCC	1	11	-2	/	6	-10	-2	i
CC12CCC(=O)N1C(C(=O)Nc1nnc(SCc3ccccc3)s1)CS2 (stereo not given)	-11	4	2	2	-9	/	/	i
O=C(NC1CCCCC1)c1noc2c1CCCCC2	-3	-2	3	-85	/	-8	-11	i
CS(=O)(=O)c1ccc(NC(=O)c2cc3c(cc2Cl)N2CCCCCC2=NS3(=O)=O)cc1	/	-4	1	5	-31	/	/	/
COCCn1c(SCC(=O)Nc2nnc(C)s2)nnc1-c1ccco1	-8	7	7	-8	/	-7	2	/
NS(=O)(=O)c1ccc(NC(=O)CSc2nc3ccccc3c(=O)n2Cc2ccncc2)cc1	-1	-1	4	/	-17	/	/	/
Cc1cc(NS(=O)(=O)c2ccc(NC(=O)/C=C/c3ccccc3Cl)cc2)no1	-8	8	-4	-13	-5	2	19	i
COCCNC(=O)C(c1ccc(C)o1)N(C(=O)C(=O)NC1CCCCC1)c1ccc(F)cc1 (stereo not given)	-6	1	9	-17	4	1	-4	i
CC(C)NC(=O)Cn1c(=O)cnc2ccccc21	1	0	4	-13	-12	2	18	i
Cn1c(CCNC(=O)OC(C)(C)C)n[nH]c1=S	-7	6	5	/	-13	-10	5	i
O=c1c2ccccc2nc(-c2ccccc2)n1O	0	2	3	-7	31	/	/	i
COc1ccc2[nH]cc(CCNC(=O)Cc3ccc(Cl)cc3)c2c1	-5	2	1	6	-7	0	1	i
CC(=O)Nc1nc(SCCCc2ccccc2)n[nH]1	0	4	2	/	-1	2	-5	i
O=C(Nc1cc(C(F)(F)F)ccc1N1CCOCC1)c1ccc[n+]([O-])c1	-2	3	4	/	3	-4	11	i
CSc1ccc(NC(=O)N2CCC(C(=O)c3ccc(F)cc3)CC2)cc1	-37	-2	-7	1	-28	11	7	i
COc1ccccc1C(=O)COC(=O)CNS(=O)(=O)c1ccc(C)cc1	7	5	5	13	-1	11	7	i
Cc1occc1-c1nnc(SCC(=O)Nc2ccc3c(c2)OCO3)n1CC1CCCO1 (stereo not given)	0	3	2	-69	-1	2	4	i
Cc1cccc(CCN(CC(=O)NC(C)(C)C)C(=O)c2csnn2)c1	-16	-3	0	-11	/	0	2	i
CCOc1cc(-c2noc(-c3cccnc3)n2)ccc1OC	-12	2	-3	-186	-12	-7	-8	/
CCC(=O)c1ccc(OCC(=O)OCC(=O)c2cc(C)n(C3CC3)c2C)cc1	2	1	3	-20	/	/	/	i
O=C(O)c1oc2ccccc2c1CSc1ccccn1	-1	-3	5	?	-12	2	5	i
Cc1cc(S(=O)(=O)N2CCN(c3ccccc3F)CC2)ccc1-n1cnnn1	/	0	-13	36	29	-16	-13	i
CCN1CCCC1CNC(=O)C(=O)Nc1ccccc1OC (stereo not given)	-8	3	0	/	3	-8	-8	i
O=C(N/N=C/c1ccc2c(c1)OCO2)c1cc(-c2ccncc2)nc2ccccc12	72	6	-12	-71	/	-9	-11	i
O=C(CSc1nnc(-c2ccccc2)n1-c1ccc(Cl)cc1)N/N=C/c1ccco1	14	4	1	4	-13	-2	10	i
O=C(CCCSc1nc2ccccc2c(=O)[nH]1)c1ccc(F)cc1	/	2	4	-6	/	84*	-3	i	eIF4H inh retest=83*;PABP polyA inh retest=2
COc1ccccc1OCC(=O)Nc1ccc(S(=O)(=O)Nc2nccs2)cc1	-7	1	1	-25	-4	-7	-3	i
CCc1nnc(NC(=O)C2CCC2)s1	-12	0	3	3	-10	0	3	i
COc1ccc(S(=O)(=O)N2CCOCC2)cc1C(=O)Nc1cc(C)on1	-11	3	3	/	-2	2	3	i
O=C(NNc1c([N+](=O)[O-])cc(C(F)(F)F)cc1[N+](=O)[O-])c1ccco1	23	-1	-18	36	-6	-3	-2	i
NC(=S)N/N=C/c1ccc(C23CC4CC(CC(C4)C2)C3)cc1	113*	/	/	/	/	-7	6	/
O=C(Nc1cccc(Br)c1)c1ccc(OC2CSC2)cc1	1	/	/	/	/	-3	1	i
CSc1nc(N2CCOCC2)c2ccccc2n1	-3	2	-2	/	/	7	-1	i
Cc1nc(Sc2cccn2C)c(C(F)(F)F)c(=O)[nH]1	-4	3	2	-93	17	-2	0	i
COc1cc(C(=O)NN2C(=O)NC3(CCC(C)CC3)C2=O)ccc1OC(F)F (stereo not given)	-11	-2	-2	3	-3	/	/	/
COc1ccc(NC(=O)C2(C)CCCN(C(C)C)C2)cc1OC (stereo not given)	/	-4	7	-3	4	/	/	/
Cc1cc(=O)oc2cc(OCC(=O)OC(C)C(=O)Nc3ccc(S(N)(=O)=O)cc3)ccc12 (stereo not given)	-25	1	3	-16	/	/	/	/
COCCN1CCN(C(=O)C2CCC(=O)N(Cc3ccc(Cl)cc3)C2)CC1 (stereo not given)	-9	-2	2	-7	-1	-16	2	i
CC1C(=O)N2CCCc3cc(NC(=O)C(=O)NCc4ccc5c(c4)OCO5)cc1c32 (stereo not given)	-7	-5	-2	-27	-9	/	/	i
CSCCC(NC(=O)c1ccccc1Cl)C(=O)NCC(c1ccco1)N1CCCCC1 (stereo not given)	-12	0	4	-16	-14	/	/	i
COC(=O)c1ccc(C(=O)OC)c(NC(=O)CN(C)Cc2cccc(Cl)c2Cl)c1	1	-7	-16	/	4	-12	-1	i
NC(=O)c1cc(S(=O)(=O)NCc2ccc(F)cc2)cs1	-2	-3	0	-7	-12	11	4	i
Cc1ccc(S(=O)(=O)NN2C(=O)/C(=C/c3cccs3)SC2=S)cc1	1	8	6	-27	-1	10	13	i
O=C(O)c1ccc(Nc2nc3ccccc3nc2NS(=O)(=O)c2ccc(F)cc2)cc1	40	15	-1	-27	-8	0	-6	i
COc1cc(C(O)c2nc(-c3ccc4ccccc4c3)cs2)ccc1F (stereo not given)	/	1	-7	-13	-8	/	/	/
C/C(=N\NC(=O)CNC(=O)C(c1ccccc1)c1ccccc1)c1ccc(C)cc1	-27	/	/	18	/	-1	-6	i
Cc1ccc(-c2nnc(N3CCC(C)CC3)c3ccccc23)cc1C	96*	1	-9	5	/	-8	-1	i
CCN(CC)CC(O)CN1C(=O)NC(C)(C)C1=O (stereo not given)	-11	-1	3	14	-1	4	-4	i
CCOC(=O)C1CCN(C(=O)Nc2ccc3oc(C)nc3c2)CC1	2	11	7	-10	8	-5	-6	i
Cc1ccccc1OCC(=O)OCC(=O)Nc1ccc(S(N)(=O)=O)cc1	0	2	1	-3	-14	23	2	i
O=C(c1ccc(N2CCCCS2(=O)=O)cc1)N1CCN(c2ccccc2F)CC1	-9	-1	-14	16	-6	/	/	i
Cc1cc(=O)n2[nH]c(C)c(-c3ccc(Cl)cc3)c2n1	/	10	0	-15	-5	-5	5	i
Cc1cc(C)cc(N(CC(=O)NC2CCCCC2)C(=O)c2csnn2)c1	-4	-1	1	-23	-15	-1	4	i
CNC(=S)Nc1cc(C)ccc1OC(F)F	-1	4	4	8	/	1	6	i
Cc1c(C(=O)N2CCOCC2)c(S(=O)(=O)Nc2ccc(C(C)C)cc2)c(C)n1C	0	1	4	6	29	-2	5	i
O=C(C1=NNC2C(=O)N(c3ccccc3)C(=O)C12)c1nc(Cl)ccc1Cl (stereo not given)	5	-6	1	/	16	-6	2	i
CCn1c(=O)c(C(=O)NCc2ccccc2Cl)c(O)c2ccccc21	2	1	-3	33	-12	-7	8	i
Cc1cccn2c(=O)c3cc(C(=O)N4CCCCC4)sc3nc12	-13	1	2	-12	-21	-6	21	i

Source: PubChem (several laboratories)
